Screens deposited in PubChem by PCMD.
Calb biofilm kill: mixtures killing C. albicans biofilm | C. albicans biofilm persisters + clotrimazole, fluorescence viability; primary screen in compound mixtures of four per well | inhibition, % at 7.6 µM | hit rate 0.02% among 120,000 | AID 1242;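 active means inhibition above 30.3% in the primary screen of four-compound pools, then above 30% when the compound was retested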;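 further: compounds exposed to preformed 24 h biofilms for 48 h; the number belongs to the whole pool; some results filed as inactive read as strong as hits; inactives centre near 12; 0% = biofilm with clotrimazole alone and 100% = kill control; retested singly at about 60 µM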
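Test system: C. albicans biofilms. Buffer or medium: RPMI/MOPS medium, pH 7.0. Timing: 48 h compound exposure at 37 °C. Technique: Alamar Blue fluorescence. Evaluation: percent inhibition of biofilm viability.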
The depositor's hits bear a star. Only part of the results is shown. The share of hits here may be higher or lower than overall.

molecule,Calb biofilm kill
Cc1ccc(CNC(=O)c2ccccc2SCC(=O)NCC2CCCCC2)cc1,14
COc1ccc(OC)c(NC(=O)CCC(=O)N(Cc2ccc(OC)c(OC)c2)c2nccs2)c1,32
O=c1[nH]c(NC2CCCCC2)c([N+](=O)[O-])c(=O)[nH]1,9
Cc1ccc(N2C(=O)C3C=NNC3C2=O)cc1 (stereo not given),11
Cc1oc(-c2cc(F)ccc2F)nc1CN1CCN(C)C(=O)[C@@H]1C,1
Oc1ccc(-c2csc(Nc3ncccn3)n2)c(O)c1,8
Cc1ccc(NC(=S)Nc2ccc3cn[nH]c3c2)cc1,18
COc1ccccc1N1CCN(c2ccc(N3C(=O)CCC3=O)cc2[N+](=O)[O-])CC1,18
CCOC(=O)NC(=O)/C(C#N)=C\NNc1ncc(C(F)(F)F)cc1Cl,13
COc1cc(OC)c(NC(=S)Nc2cccc(C)c2)cc1Cl,2
CC(=O)Nc1ccc(S(=O)(=O)NCC2CCC(C(=O)NC(C)c3ccc4c(c3)OCCO4)CC2)cc1 (stereo not given),10
Cc1cccc(Cc2nnc(CCC(=O)N(C)Cc3ccncc3C)o2)c1,1

More records.
molecule,Calb biofilm kill
COC(=O)c1ccc(C(C(=O)NC2CCCCC2)N(Cc2ccccc2)C(=O)Cc2cccs2)cc1 (stereo not given),-11
Cn1c(SCc2c(Cl)cccc2Cl)nnc1-c1ccc2nonc2c1,23
O=S(=O)(Nc1ccc(Cl)nn1)c1ccccc1,3
CCN=C1S/C(=C\c2ccc(OCC)c(OC)c2)C(=O)N1CC,17
CCCCC(C(=O)OCC)C(N)Cc1ccc(F)cc1 (stereo not given),18
Cn1c(N)c(C(=O)COC(=O)CCCc2nc3ccccc3s2)c(=O)n(C)c1=O,4
Cn1c(N/N=C/c2cccs2)nc2c1c(=O)n(Cc1ccccc1)c(=O)n2C,16
CC(C)N1C/C(=C/c2ccsc2)C(=O)/C(=C/c2ccsc2)C1,17
COC(=O)COc1ccc(S(=O)(=O)Nc2cc([N+](=O)[O-])ccc2C)cc1,12
CCOC(=O)[C@@H]1C(c2c(OC)cc(OC)cc2OC)=NO[C@@H]1C(=O)OCC,4
COc1cc(NC(=S)NNC(=O)C(C)(C)O)cc(OC)c1,18
O=C(Nc1ccc(OC(F)(F)F)cc1)Oc1ccccc1N1CCOCC1,9

The listing continues:
molecule,Calb biofilm kill
COc1ccc(-c2nc(C)sc2CC(=O)O)cc1OC,9
COc1cccc(NC(=O)COC(=O)CCS(=O)(=O)c2ccc(C)cc2)c1,14
Nc1nc(NC(=O)C(Cl)(Cl)Cl)nn1-c1ccccc1,13
O=C(NCCOCCOCCNC(=O)c1ccccc1)c1ccccc1,-14
CC1(C)CC(=O)C2=C(C1)OC1=C(C2)C(=O)CC(C)(C)C1,12
O=C(c1cc(Sc2ccc(Cl)cc2)nc2ccccc12)N1CCN(c2ccccn2)CC1,13
O=C(c1cccc(C(F)(F)F)c1)C1CCCN(C(=O)CCc2cnccn2)C1 (stereo not given),11
Cc1ccccc1N(CC(=O)N1CCOCC1)S(C)(=O)=O,2
CCn1cc(/C=N\NC(=O)c2c[nH]c3ccccc23)c(C)n1,6
CCCC(=O)NC(c1ccccc1OC)c1ccc2cccnc2c1O (stereo not given),22
CN(Cc1ccccc1)C(=S)NC(=O)c1ccc(-c2ccccc2)cc1,20
CSc1ccc(/C=N/Nc2ccc(Cl)c(C(=O)O)c2)cc1,1

More records.
molecule,Calb biofilm kill
CC(=O)OCC1OC(n2ncc(=O)n(Cc3ccccc3)c2=O)C(OC(C)=O)C1OC(C)=O (stereo not given),12
CCOCCCNC(=O)Cc1ccc(Br)cc1,9
CCN(CC)S(=O)(=O)c1ccc(S(=O)(=O)N2CCCC2)cc1,16
Cc1cccc(-c2nc3ccccc3c(=O)n2NC(=S)N(C)C)c1,8
COc1ccccc1NC(=S)NC1CC2CCC1C2 (stereo not given),10
COc1cc(OC)c2cc[nH]c2c1,6
Cc1cnc(C)c(N2CCN(Cc3nc(-c4cccc(F)c4F)oc3C)CC2)n1,11
COc1cccc(/C=N/NC(=O)C(C)n2nnc3ccccc32)c1 (stereo not given),18
CCC/S(C)=N/S(=O)(=O)c1ccc(C)cc1 (stereo not given),9
CN(C(=O)n1cnc2ccccc21)c1ccccc1,6
COc1ccc(CCNC(=O)c2cn3ccc(C)cc3n2)cc1OC,13
COc1ccc(NC(=O)CCSCCC(=O)Nc2ccc(OC)cc2OC)c(OC)c1,15

Next part (6 carried over from the part before).
molecule,Calb biofilm kill
Cc1cnc(C)c(N2CCN(Cc3nc(-c4cccc(F)c4F)oc3C)CC2)n1,11
COc1cccc(/C=N/NC(=O)C(C)n2nnc3ccccc32)c1 (stereo not given),18
CCC/S(C)=N/S(=O)(=O)c1ccc(C)cc1 (stereo not given),9
CN(C(=O)n1cnc2ccccc21)c1ccccc1,6
COc1ccc(CCNC(=O)c2cn3ccc(C)cc3n2)cc1OC,13
COc1ccc(NC(=O)CCSCCC(=O)Nc2ccc(OC)cc2OC)c(OC)c1,15
O=C(CC1SCCNC1=O)Nc1ccc(Cl)c(Cl)c1 (stereo not given),6
C=Cc1ccc(CSc2cc(C)nc3nc(C)nn23)cc1,18
Cc1ccccc1NC(=O)COC(=O)c1ccc(CSc2ccc(Cl)cc2)cc1,17
COc1ccc(OC)c(S(=O)(=O)N2CCC(C(=O)N(C)Cc3ccccc3)CC2)c1,28
NC(=O)c1ccccc1NC(=O)c1ccccc1S(=O)(=O)c1ccccc1[N+](=O)[O-],0
Cc1ccc(C(=O)NCC(=O)OC(C)C(=O)NCCC2=CCCCC2)cc1C (stereo not given),-10
Cc1ccc2c(c1)C(c1ccc([N+](=O)[O-])cc1)=NNC(c1ccc(Br)cc1)=N2,9
O=C(NCc1cccnc1)/C(=C\c1ccc(-c2ccc(Br)cc2)o1)S(=O)(=O)c1ccccc1,6
O=C(NCc1ccco1)c1ccc(Cl)nc1,23
CC(C)CCn1c(CN2CCN(c3cccc(Cl)c3)CC2)nc2c1c(=O)n(C)c(=O)n2C,24
O=C(CCNC(=O)c1ccccc1)NCC1CCCCC1,11
O=C(NC1CCCCCC1)c1c2c(nc3ccccc13)CCN(Cc1ccccc1)C2,16

The results go on:
smiles,Calb biofilm kill
CC(C)(C)c1cc(=O)[nH]c(SCc2ccccc2Cl)n1,17
O=C(NC1CC1)C1=C[C@H](C2CCCCC2)C[C@H](OCCCCO)O1,22
CCOC(=O)N/N=C/c1cn(Cc2ccc(F)cc2)c2ccccc12,25
CCOC(=O)c1cc(-c2ccc(C)cc2)nc2nc(SC)[nH]c(=O)c12,11
O=C(O)COCC(=O)N1CCN(C(c2ccccc2)c2ccccc2)CC1,24
CCN1CCN(C(=O)/C=C/c2ccc([N+](=O)[O-])cc2)CC1,14
N/C(=N\c1nc2c(c(=O)[nH]1)CCC2)Nc1cccc(Cl)c1,11
CCOC(=O)C1(Cc2cccc(OC)c2)CCN(C(C)CC(C)(C)O)CC1 (stereo not given),10
CN(Cc1ccccc1)c1nc(N)c([N+](=O)[O-])c(NCc2ccccc2)n1,8
COc1ccc(-c2csc(NC(=O)c3cccs3)c2C(=O)O)cc1OC,7
CC(C)N1CSC(=S)N(Cc2ccccc2)C1,2
COc1ccc(C)cc1N(C(=O)COc1cccc(F)c1)c1nc2ccccc2s1,9
CCC1CCC(c2nnc(-c3ccc([N+](=O)[O-])cc3)o2)CC1 (stereo not given),21
CC1=C(C(=O)Nc2ccccn2)C(c2ccc(Cl)cc2Cl)NC(=S)N1 (stereo not given),8
O=C(NCc1ccncc1)c1cncc(Br)c1,8
COc1ccc(C)cc1NC(=O)c1nnn(Cc2cccc(C(F)(F)F)c2)c1N,7
Cc1ccc(S(=O)(=O)NC(=NC(C)C)c2ccccc2)cc1,14
CCOC(=O)Cn1cnc2c(sc3nc(C)cc(C)c32)c1=O,8
O=C(c1ccc(NS(=O)(=O)c2cccc3cccnc23)cc1)N1CCCCC1,10
Cc1ccc(NS(=O)(=O)c2cc([N+](=O)[O-])ccc2N/N=C/c2sc(N3CCOCC3)nc2-c2ccccc2)c(C)c1,22
CCc1ccccc1NC(=O)Nc1cccc(F)c1,-4
NNC(=O)CNC(c1ccccc1)c1cc(Br)ccc1N (stereo not given),23
CN(C)c1ccc(/C=C/C(=O)c2cccnc2)cc1,25
COC(=O)Nc1nn(-c2ccc(Cl)cc2)c(=O)c(C#N)c1C,21
COc1cc2[nH]c(=S)n(Cc3ccccc3)c(=O)c2cc1OC,13
COc1ccccc1NC(=S)N(CCN1CCOCC1)Cc1ccccc1F,17
Cc1ccccc1-c1nnn(Cc2ccc(-c3nn[nH]n3)cc2)n1,8
O=C(N/N=C/c1ccc[nH]1)c1cccc(Br)c1,18
COCCSc1ccccc1C(=O)N1CCC(Cc2ccccc2)CC1,20
CCOC(=O)c1cnc(-n2nc(C)cc2C)[nH]c1=O,-1

Further results
smiles,Calb biofilm kill
Cc1cccc(NC(=O)COC(=O)Cc2cccc(C(F)(F)F)c2)c1C,5
Oc1c(Br)cc(Br)cc1C=Nc1ccc2c(c1)OCO2,14
O=C(NCc1ccco1)c1cccnc1Cl,7
CC(C)(C)NC(=O)CSc1nc(N)c(NC(=O)c2ccccc2F)c(=O)[nH]1,16
CC(=O)N1CC(=O)N=C1SCC(=O)Nc1nc(C)c(-c2ccccc2)s1,11
O=C(Nc1nnc(SCc2ccccc2F)s1)c1ccco1,8
CC(C)(C)c1ccc(/C=N/OCC(=O)NCc2ccccc2)cc1,1
COc1cccc(NC(=S)NNC(=O)Cn2nc(C(F)(F)F)cc2C)c1,13
OCCCCNCc1cc(Br)ccc1OCc1ccccc1F,5
CCCn1c(O)c(N=N)c2ccccc21,19
CCOC(=O)c1ccc(NC(=S)N(CCCN2CCCCC2)Cc2ccco2)cc1,19
CNC(=O)c1[nH]cnc1C(=O)Nc1ccccc1C,14
COc1ccc2nnc(-c3ccc(C(F)(F)F)cc3)n2n1,17
Cc1ccc(CN(C(=O)Cn2nnc3ccccc32)C(C(=O)NCc2ccco2)c2ccc(C)o2)cc1 (stereo not given),13
Cc1ccc(CSc2nnc(-c3ccccn3)n2N)cc1,8
COc1ccccc1C(=O)NN=C1CCN(Cc2ccccc2)CC1,8
CCOC(=O)/C(=C/C=C1\Sc2cc(OCC)c(OCC)cc2N1CC)C(C)=O,0
COc1ccc2c(c1)c(CC(=O)Nc1ccc(C(C)=O)cc1)c(C)n2C(=O)c1ccc(Cl)cc1,3
O=C(Nc1cccc(F)c1)c1ccccc1-c1ccccc1,18
CC1=NN(c2cccc(C(=O)O)c2)C(=O)/C1=C\C=C\c1ccco1,6
CC1CCCCN1C(=S)NC(=O)c1cccs1 (stereo not given),18
COC(=O)C1CC(O)CN1C(=O)Nc1ccccc1 (stereo not given),7
O=C(CCCn1c(=O)[nH]c2ccccc2c1=O)Nc1ccc(F)cc1,6
CN1CCN(CCC(=O)Nc2ccc(Br)cc2)CC1,9
Cc1ccc(CCC(=O)Nc2ccccc2F)s1,11
Cc1ccc(/C=C/C(=O)Nc2cccc3cccnc23)o1,6
OCCOc1cccc(CN2CCC(CO)(CCOc3ccccc3)CC2)c1,19
CC(=O)NS(=O)(=O)c1ccc(N=NN2CCCCCC2)cc1,-8
O=C(COC(=O)Cc1c(Cl)cccc1Cl)Nc1ccc(OC(F)(F)F)cc1,17
O=C(CN(Cc1cccs1)C(=O)CCC(=O)Nc1ccccn1)NCc1ccccc1,15

Arranged by SMILES length (rising): some entries from above.
smiles,Calb biofilm kill
O=C(NCc1ccco1)c1cccnc1Cl,7
CC1CCCCN1C(=S)NC(=O)c1cccs1 (stereo not given),18
CCOC(=O)c1ccc(NC(=S)N(CCCN2CCCCC2)Cc2ccco2)cc1,19
O=C(CN(Cc1cccs1)C(=O)CCC(=O)Nc1ccccn1)NCc1ccccc1,15

The listing picks up, starting two compounds before the break.
smiles,Calb biofilm kill
O=C(COC(=O)Cc1c(Cl)cccc1Cl)Nc1ccc(OC(F)(F)F)cc1,17
O=C(CN(Cc1cccs1)C(=O)CCC(=O)Nc1ccccn1)NCc1ccccc1,15
CCn1c2ccccc2c2nnc(NN)nc21,0
CCN(CC)S(=O)(=O)c1cc(C(=O)N(C)CC(=O)Nc2ccc(Cl)cc2)ccc1Cl,0
O=C(Oc1ccccc1)c1ccc(NC(=O)c2ccco2)cc1,18
CCN(CC)C(=O)c1[nH]cnc1C(=O)N[C@@H](C)C(=O)OC(C)(C)C,20
Cc1cc(C)nc(-n2nc(C)cc2NC(=O)CN2CCCC2)n1,12
Fc1ccc(N2CCN(Cc3c[nH]c4ccccc34)CC2)cc1,17
Cc1cc(NC(=O)C23CC4CC(C2)CC(n2cnc([N+](=O)[O-])n2)(C4)C3)no1,16
C=C1CCN(C(CC(C)C)C(=O)OC)S(=O)(=O)c2ccccc21 (stereo not given),16
Cc1ccc(Cl)cc1N1CCN(C(=S)NCc2ccco2)CC1,17
O=S(=O)(Nc1ncccn1)c1ccc(NS(=O)(=O)c2cccc(Cl)c2Cl)cc1,17
Cc1cc2nc3c(c(C(F)(F)F)n2n1)CCCC3,14
CC(=O)Nc1ccccc1NC(=O)c1cccc2ccccc12,-7
Cc1ccc(-c2nc(C)sc2CC(=O)Nc2cccc(C)c2C)cc1,18
Cc1nc2c(-c3ccc(F)cc3)c(C)nn2c(C)c1CCC(=O)Nc1ccc(F)cc1F,23
CCc1cccc2c(N=O)c(O)[nH]c12,5
COc1ccc(-c2nnc(N(C)C(=O)c3ccno3)s2)cc1,14
CCc1nn(CC(=O)NCCCN(CC)c2cccc(C)c2)c(=O)c2cc3occc3n12,-1
Cc1ccc(S(=O)(=O)c2cc3c(=O)n4cccc(C)c4nc3n(CC3CCCO3)c2=N)cc1C (stereo not given),4
COc1ccc(/C=N/n2cnc3c([nH]c4ccc(F)cc43)c2=O)cc1CSc1ccccn1,1
O=C(Cc1ccc([N+](=O)[O-])cc1)c1ccc(O)cc1O,32
